Ba CapD inh – Bacillus anthracis CapD inhibitors, primary screen, biochemical, fluorescence intensity; z-score (concentration not given with the values); CapD gamma-glutamyltranspeptidase (Bacillus anthracis Ames Ancestor); purified CapD enzyme, fluorescence intensity read-out; stronger effect = lower value; some hits fall short of the stated cut; actives 0.23% (n = 140,000);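 active means z-score under -4 in either of two replicates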;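 further: stock transfer was 100 nL into about 40 µL; score is relative to mean and spread of the plate; one replicate is shown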
AID504770 – growth inhibition of E. coli YBA685, primary screen, V. cholerae RctB inhibitors | E. coli YBA685 rctB-dependent plasmid, OD600 growth, 3 h; stronger effect = lower value | AID 504770, 2011 | z-score (no concentration beside the values) | actives 0.27% (n = 130,000);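 active means z-score under -2 on both plates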;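 further: wells of about 30 µL received 100 nL stock; score is relative to mean and SD of the test wells; the first replicate is given; strong numbers were not always called active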
* hit, by the source's call; . = not tested or not shown.

mol	Ba CapD inh	AID504770
CCOC(=O)C1CCCN(CC(=O)/C=C2/N(C)c3ccccc3C2(C)C)C1 (stereo unspecified)	.	-0.8
COc1ccc(OC)c(-n2c(CNC(=O)c3ccc(OC)c(OC)c3)nnc2SCC(=O)Nc2nccs2)c1	0.32	.
COc1cc(CN2CCCC(O)C2)cc(OC)c1OC (stereo unspecified)	0.14	-0.65
O=C(CC1SCC(C(=O)O)NC1=O)NCc1ccccc1 (stereo unspecified)	.	-0.85
CC(C)OC(=O)C1Cc2ccccc2CN1S(=O)(=O)c1cccs1 (stereo unspecified)	.	-1.1
Cn1nc(C(F)(F)F)c2cc(-c3nc(-c4ccc(C(F)(F)F)cc4)no3)sc21	-0.3	-0.25
CN(C)NC(=S)Nc1ccc(S(=O)(=O)N2CCCCC2)cc1	0.26	0.85
CN1/C(=C(/C#N)C(=O)CSc2nc(C3CC3)n(-c3ccccc3)n2)Sc2ccccc21	.	-0.25
Cc1cc(N2CCOCC2)c2c(N)c(C)cc(C)c2n1	-1.9	-0.65
O=C1CN=C(c2ccccc2Cl)c2cc([N+](=O)[O-])ccc2N1	0.55	.
CC1CC(C)CN(C(=O)Cn2c(=O)n(CCCC(=O)NCc3ccco3)c(=O)c3sccc32)C1 (stereo unspecified)	0.02	-0.25
Nc1ccccc1SCC(=O)Nc1c(F)cccc1F	0.075	.
CCOC(=O)c1nc2cc3n(c(C)c-2c1C)C(C)C(CCC(=O)O)=C3C (stereo unspecified)	3.7	.
COCc1[nH]nc2c1C1(CCC(C(C)(C)C)CC1)C(C#N)=C(N)O2 (stereo unspecified)	.	-0.3
O=S(=O)(Nc1ccccc1N1CCOCC1)c1ccc2c(c1)OCC2	0.61	-0.5
O=C(CC(=O)c1ccccc1O)c1ccccc1	-1.9	0.95
CO/N=C/C(c1ncc(C(F)(F)F)cc1Cl)S(=O)(=O)c1ccccc1 (stereo unspecified)	0.14	.
COc1ccccc1OCC(=O)NCCC1=CCCCC1	0.54	0.4
N#C/C(=C/c1cn(CC(=O)O)c2ccccc12)c1ccc(F)cc1	-3.2	0.4
COC(=O)NC(=Nc1ccc(OC)cc1)C(F)(F)F	-0.33	-0.95
COc1ccccc1CNC(=O)c1sc2nc(C)nc(N3CCC(C)CC3)c2c1C	1.3	.
COc1ccc(/C=C/C(=O)/C=C/c2ccc(OC)cc2)cc1	-3	-0.25
Cc1onc(-c2ccccc2)c1C(=O)OCC(=O)c1ccc2c(c1)OCCO2	.	0
O=S1(=O)CC(c2ccccc2)CS(=O)(=O)C1	-0.69	-1.5
COc1cc2c(cc1OC)-c1nnc(C)n1C(C)(C)C2	-0.83	0.45
CN1CCN(C(=S)c2cn(Cc3ccc(F)cc3)c3ccccc23)CC1	-0.41	-0.35
COc1cccc(CCC(=O)O)c1OC	.	-0.7
COc1cc(/C=N/NC(=O)c2cn(-c3cccc(C)n3)cn2)ccc1O	4.5	.
CCCCc1nc2c(c(=O)[nH]1)C(C)(C)Cc1ccccc1-2	2.4	-0.5
COC(=O)C1=C(N)Oc2cc(C)[nH]c(=O)c2C12C(=O)N(CC(C)C)c1ccccc12 (stereo unspecified)	.	-0.6
Cc1ccc(N=Cc2c(O)[nH]c(=S)[nH]c2=O)cc1	0.93	-0.35
BrCCOC1OCCOC1OCCBr (stereo unspecified)	-0.24	-0.65
O=C(CSc1nc2c(c(=O)n1-c1ccc(Cl)cc1)SCC2)Nc1nccs1	1.3	-0.3
Fc1ccc(-c2cc(C(F)(F)F)nc(-n3cccn3)n2)cc1	0.71	0.15
CCCCCC#CCCOC(=O)N1CCN(c2ccc(C(F)(F)F)cn2)CC1	1.7	.
COc1cc(CO)ccc1OCC(=O)NC(C)(C)C	0.47	1
O=c1c2c(n3c(=S)[nH]nc3n1-c1ccccc1)-c1ccccc1CC21CCCCC1	-0.42	.
CC1(C)CC(CC(=O)N2CCCCC2)(c2ccccc2)CCO1 (stereo unspecified)	-0.48	-0.95
O=C(O)CCCNc1nc(F)cc(F)n1	0.22	-0.4
Cc1ccc(N2C(=O)C3Sc4[nH]c(=O)sc4C(c4ccccc4)C3C2=O)cc1 (stereo unspecified)	1.4	-0.4
Cn1cc(Br)c(NC(=O)/C=C\C(=O)O)n1	0.56	0.5
O=C(N/N=C1\CCS(=O)(=O)c2ccc(F)cc21)c1ccc(O)cc1	.	-0.1
COc1ccc(-c2nc(=S)n(CN3CCOCC3)[nH]2)cc1	0.84	0
COc1ccc(C(=O)/C=C/Nc2ccccn2)c(OC)c1	.	-0.8
COc1ccc2cc(C3SC(C)C(=O)N3C3CCCO3)c(Cl)nc2c1 (stereo unspecified)	16	-0.85
Cn1ccnc1SCC(=O)N1c2ccccc2Sc2ccccc21	1.6	-0.5
COc1cc(OC)cc(C(=O)N(C)CCc2ccc(OC)c(OC)c2)c1	.	0.1
COc1cccc(-n2c(N)c(C(N)=O)sc2=S)c1	-1.5	.
CC(=O)N(c1ccccc1)c1nc(CSc2nnc(Cc3cccs3)n2C)cs1	.	0.2
CCC(Sc1nc2ncccc2c(=O)n1Cc1ccccc1)C(=O)NCc1ccc(C)cc1 (stereo unspecified)	-1.7	0.25

In a second layout: four of the compounds above.
Cn1cc(Br)c(NC(=O)/C=C\C(=O)O)n1
  Ba CapD inh = 0.56; AID504770 = 0.5

O=C(N/N=C1\CCS(=O)(=O)c2ccc(F)cc21)c1ccc(O)cc1
  Ba CapD inh = .; AID504770 = -0.1

COc1ccc(-c2nc(=S)n(CN3CCOCC3)[nH]2)cc1
  Ba CapD inh = 0.84; AID504770 = 0

COc1ccc(C(=O)/C=C/Nc2ccccn2)c(OC)c1
  Ba CapD inh = .; AID504770 = -0.8

Other records.
mol	Ba CapD inh	AID504770
CCOc1ccc(N2CSC(=S)N(c3ccc(OCC)cc3)C2)cc1	0.44	-0.2
CC(CC(=O)Nc1cccc(C(F)(F)F)c1)N1CCCC1 (stereo unspecified)	-0.2	-0.2
Cc1cc(C)nc(NS(=O)(=O)c2ccc(NC(=O)c3ccc(S(=O)(=O)N4CCCCCC4)cc3)cc2)n1	-0.22	.
C=C(C)Cn1cnc(-c2ccccc2)c1-c1ccccc1	.	-0.1
O=c1[nH]c2ccc(NCc3ccccn3)cc2[nH]1	18	-0.35
Cc1ccc([N+](=O)[O-])cc1N1C(=O)C2C3C=CC(O3)C2C1=O (stereo unspecified)	-0.2	.
COC(=O)c1cc(NC(=O)c2cccc3c2C(=O)N(Cc2cccnc2)C3)cc(C(=O)OC)c1	6.8	0.2
COc1ccccc1CN(C)C(C)C(=O)NCC1CCCCC1 (stereo unspecified)	.	-2.2
CC(CCN1CCCN(C)CC1)c1ccccc1 (stereo unspecified)	-0.005	-1.1
NC(N)=NC(N)=Nc1ccc(Cl)c(Cl)c1	0.36	.
O=C(Nc1ccccc1)Nc1ccc(SCc2nc(OCC(F)(F)F)cc(OCC(F)(F)F)n2)cc1	-0.52	.
Clc1ccc(CN2CCN(/N=C/C3=C(N4CCOCC4)C(=C\c4ccccc4)/CC3)CC2)cc1	.	0.6
CC1CC1C(=O)OCc1cc(=O)n2cc(Br)ccc2n1 (stereo unspecified)	.	0.8
O=C(Nc1ccc2oc(-c3ccccc3F)nc2c1)c1ccc2c(c1)OCCO2	69	.
CC(C)CCn1c(=O)c2ccccc2c2ccccc2c1=O	-0.4	-0.45
CN(Cc1c(F)cccc1Cl)S(=O)(=O)c1cn(C)c(=O)n(C)c1=O	.	0.3
COc1ccc(C2=NN(c3nc(-c4ccc(S(=O)(=O)N5CCOCC5)cc4)cs3)C(c3ccco3)C2)cc1 (stereo unspecified)	-0.54	.
O=C(NCc1cccs1)c1ccc(NC(=O)c2ccc(=O)[nH]c2)cc1	0.69	-0.25
Cc1cc(-c2ccccc2)nc2cc(C(=O)Nc3cc(Oc4ccc(O)cc4)cc([N+](=O)[O-])c3)nn12	0.045	.
COc1cccc(NC(=S)NCc2cccn2C)c1	-0.08	-0.35
COc1ccccc1-c1nc2sc3c(c2c(=O)o1)CCCC3	0.11	.
CSc1ccc(CNC(=O)c2cccs2)s1	-0.77	1.1
O=C(Nc1ccc2c(c1)-c1cc(NC(=O)c3cccc(C(F)(F)F)c3)ccc1S2(=O)=O)c1cccc(C(F)(F)F)c1	6	.
O=C(O)CSc1nnc(Cn2c(=O)sc3ccccc32)n1-c1cccc(C(F)(F)F)c1	2	-0.35
Cc1ccc(C)c(NCCOc2ccccc2)c1	-0.38	-0.4

Profiles, looked up by structure. Order of screens: Ba CapD inh	AID504770
COc1cc(/C=N/NC(=O)c2cn(-c3cccc(C)n3)cn2)ccc1O is listed with 4.5	.
COC(=O)c1cc(NC(=O)c2cccc3c2C(=O)N(Cc2cccnc2)C3)cc(C(=O)OC)c1 is listed with 6.8	0.2
O=C(O)CCCNc1nc(F)cc(F)n1 is listed with 0.22	-0.4
O=C(CC(=O)c1ccccc1O)c1ccccc1 is listed with -1.9	0.95

Next section.
mol	Ba CapD inh	AID504770
NC(=S)N/N=C1\CCOc2ccc(Cl)cc21	-1	-0.5
O=C(CC1CCCC1)OCC(=O)c1ccc(Cl)cc1	0.17	0.15
CCOC(=O)c1cccc(NC(=O)c2cccc3c2C(=O)N(C2CCN(C(=O)OCC)CC2)C3)c1	0.23	0.7
O=C(c1cc2cc(Br)ccc2oc1=O)N1CCCc2ccccc21	7.3	-0.6
Cc1cc(C)n(CC(=O)NC2CCCCC2)n1	-0.22	-0.3
CC(=O)c1ccc(-c2ccc(Cl)cc2Cl)o1	11	.
CCc1nc2ccccc2c2c1C(=O)N(CCc1ccccn1)C2=O	-0.34	.
CCOC(=O)c1sc(SC#N)c(C(=O)OCC)c1C	.	0.7
CCN1CCc2c(sc3[nH]c(=S)n(Cc4ccccc4)c(=O)c23)C1	.	0.05
O=C(COc1ccc(Cl)cc1)NCC(c1ccco1)N1CCc2ccccc2C1 (stereo unspecified)	.	0.55
CCOc1ccccc1N(C)S(=O)(=O)c1ccc2[nH]c(=O)ccc2c1	-0.41	-0.35
CCCCNC(=O)C1CCN(S(=O)(=O)c2cccc3nsnc23)CC1	-0.21	1.4
CN(CCOc1ccc(Br)cc1)Cc1nnc(-c2ccc(F)cc2)o1	.	-0.05
Nc1ccccc1N1CCCCC1	0.48	0.95
O=C(NC1CCCCCCC1)c1c[nH]c2ccc(S(=O)(=O)N3CCOCC3)cc2c1=O	7.5	1.1
CCC(=O)Nc1cc(C(F)(F)F)cnc1OC	0.16	-0.15
COc1ccc(-c2nc(C)c(CCNC(=O)C(C)(C)C)s2)cc1	8.9	-0.35
O=C(/C=C/c1ccccc1)N1CCN(Cc2cccc(F)c2)CC1	-0.14	1.8
O=C(CN1CCC(c2nc3ccccc3o2)CC1)Nc1cc(F)ccc1F	.	1.8
Nc1nc2nc(-c3cccs3)cc(C(F)(F)F)c2s1	.	2
Cc1ccc2nc(-c3ccc(Br)cc3)cc(C(=O)N3CCOCC3)c2c1	0.06	.
O=C(NN1CC(=O)N(c2ccccc2-c2ccccc2)C1=O)c1ccncc1	.	-0.5
FC(F)(F)c1ccc(Nc2n[nH]c(=S)s2)cc1	-1.5	0.05
Cc1cc2cc(CN(CC3COCCO3)S(=O)(=O)c3ccc(F)cc3)c(=O)[nH]c2cc1C (stereo unspecified)	.	1.9
COC(=O)c1scc2c(SCc3ccccc3)cc(C(F)(F)F)nc12	35	1.1
CCOC(=O)N1CCN(C(=O)c2cc(-c3ccc(F)cc3)n[nH]2)CC1	-1.1	-0.6
Cc1ccc2c(COC(=O)c3ccc(Cl)nc3)cc(=O)oc2c1	.	-0.55
CCC(CC)NC(=O)CSc1nc(C)c(C)n1CC(C)C	.	0.05
Cc1cc(C(=O)Nc2cc(-c3ccccc3)nn2C)no1	1.9	1.1
CSCCC(CO)NS(=O)(=O)c1cc(Cl)sc1Cl (stereo unspecified)	0.47	.
C(=C\C1Nc2ccccc2-c2nc3ccccc3n21)/c1ccccc1 (stereo unspecified)	0.055	0.45
CS(=O)(=O)Nc1ccc2oc3ncccc3c(=O)c2c1	-0.98	-0.6
Cc1ccc(-c2nc(Nc3cccc(C(F)(F)F)c3)sc2CC(=O)O)cc1	-0.52	-1.1
CCOC(=O)c1cc2c(=O)n3ccccc3nc2n(C)c1=NC(=O)c1ccc(OC)cc1	30	0.25
CSc1ncc(F)c(N(CCO)CCO)n1	0.17	0.5
CCn1c(NCc2ccco2)nc2ccccc21	-0.46	0.3
O=C1C2C3C=CC(CO)(O3)C2C(=O)N1c1ccc(Cl)c(C(F)(F)F)c1 (stereo unspecified)	-0.4	.
COc1ccc(CNC(=O)c2c[nH]c3ccc(S(=O)(=O)N4CCc5ccccc5C4)cc3c2=O)cc1	0.49	.
CC(Nc1ccccc1)c1ccncc1 (stereo unspecified)	.	-0.5
CN(C(=O)COC(=O)c1ccc(Cl)c(N)c1)C1CCCCC1	7.8	0.55
CC1=CCC2C(=O)N(c3ccc(F)cc3F)C(=O)C2C1 (stereo unspecified)	0.23	.
COc1ccc(CNC2CC2)cc1	.	-1.8
CCOc1ccc2[nH]c(=O)c(Cc3ccccc3)c(O)c2c1	6.5	-0.4
COc1cc(OC)nc(CCC(=O)NCc2cccc(C(F)(F)F)c2)n1	-0.015	.
CCCCC(=O)Nc1cccn(Cc2c(Cl)cccc2Cl)c1=O	4.5	.
Cc1ccc(-c2nnc(-c3cc(C(=O)NN)c(C)nc3C)o2)cc1	-0.61	-0.1

Compound activity (PubChem)
